LANA-H2A inh: blocks KSHV LANA binding to histone H2A/H2B. Q9QR71. inhibition, % (no concentration beside the values). 0.6% of 320,000 active. cell-free LANA-H2A/H2B peptide, fluorescence polarization; in the data active = inhibition mostly above about 10%, no sharp cut-off; inactive = mostly below about 6.7%;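 also: stock transfer was 7.5 nL into about 10 µL; 0% = median of vehicle wells and 100% = median of positive control wells; one replicate is shown; the record names a cut of 25% in any replicate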
Target sequence (Q9QR71 whole entry, looked up): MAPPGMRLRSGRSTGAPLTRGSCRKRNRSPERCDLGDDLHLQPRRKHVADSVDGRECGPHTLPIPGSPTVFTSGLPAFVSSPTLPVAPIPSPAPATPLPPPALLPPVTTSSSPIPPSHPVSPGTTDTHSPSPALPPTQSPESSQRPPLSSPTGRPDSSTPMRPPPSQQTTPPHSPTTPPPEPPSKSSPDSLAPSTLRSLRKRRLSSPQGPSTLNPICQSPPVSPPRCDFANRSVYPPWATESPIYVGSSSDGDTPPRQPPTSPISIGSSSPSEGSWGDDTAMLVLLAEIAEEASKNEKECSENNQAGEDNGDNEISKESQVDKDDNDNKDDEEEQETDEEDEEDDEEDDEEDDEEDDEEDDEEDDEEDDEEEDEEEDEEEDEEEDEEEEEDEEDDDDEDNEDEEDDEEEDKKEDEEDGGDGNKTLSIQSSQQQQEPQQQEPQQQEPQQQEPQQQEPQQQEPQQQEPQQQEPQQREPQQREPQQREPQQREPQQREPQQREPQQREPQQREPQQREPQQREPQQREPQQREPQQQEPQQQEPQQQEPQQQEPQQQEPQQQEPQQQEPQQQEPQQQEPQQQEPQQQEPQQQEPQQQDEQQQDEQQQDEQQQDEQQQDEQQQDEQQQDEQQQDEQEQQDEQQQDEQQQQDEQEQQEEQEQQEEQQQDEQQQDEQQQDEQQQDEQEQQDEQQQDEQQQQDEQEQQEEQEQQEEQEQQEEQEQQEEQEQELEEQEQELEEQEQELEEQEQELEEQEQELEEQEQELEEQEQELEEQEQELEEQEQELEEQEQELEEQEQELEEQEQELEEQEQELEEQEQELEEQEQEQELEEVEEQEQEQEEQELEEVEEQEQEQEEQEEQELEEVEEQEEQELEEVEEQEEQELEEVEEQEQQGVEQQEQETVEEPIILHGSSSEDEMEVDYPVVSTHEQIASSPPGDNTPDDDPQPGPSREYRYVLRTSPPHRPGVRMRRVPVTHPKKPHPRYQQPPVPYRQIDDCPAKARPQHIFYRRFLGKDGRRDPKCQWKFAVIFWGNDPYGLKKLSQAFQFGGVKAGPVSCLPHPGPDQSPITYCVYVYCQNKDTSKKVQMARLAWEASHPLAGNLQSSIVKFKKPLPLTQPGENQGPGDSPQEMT
Beta apoptosis: beta cell apoptosis inhibition. INS-1E cytokine-induced death, ATP luminescence, 48 h; percent of positive-control rescue, neutral wells zero. protection from apoptosis, % (no concentration beside the values). 0.8% of 300,000 active. AID 435005;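 active = all replicates at 75% or more, or half of them and the mean; inconclusive = half reach 75% but not the mean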;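 also: 0% = cytokine-treated negative control wells and 100% = positive control rescue; higher means more ATP so stronger rescue from cytokine killing; wells of about 40 µL received 100 nL stock; the first replicate is given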
UCH37 DUB inh: blocks the human deubiquitinase UCH37; purified proteasome/UCH37, Ub-AMC cleavage fluorescence; inhibition, % (no concentration beside the values); 0.33% of 330,000 active; AID 588478;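 active = mean of two replicates above 20%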;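 also: 0% = compound-free wells with enzyme and 100% = wells lacking proteasome; stock transfer was 100 nL into about 20 µL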
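Material: human UCH37 enzyme supplied as purified proteasome complex / Amount: 0.15 nM proteasome as dispensed / Buffer or medium: pH 7.4 Tris-HCl (50 mM) with ovalbumin, ATP-MgCl2, DTT / Times: preincubation 30 min, reaction 25 min, room temperature / Technique: AMC fluorescence from Ub-AMC cleavage, excitation 355 nm, emission 460 nm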
Beta2AR agonist: human beta-2 adrenergic receptor agonism by FAP; P07550; Am2.2-beta2AR cells, FAP receptor internalization, flow cytometry; reference of the scale not given here; response, % (concentration not given with the values); 0.43% of 340,000 active; AID 504454;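 active = response above a set limit, near 3 SD of response in nonfluorescent compounds, cut at about 42% in these data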;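 also: stock transfer was 100 nL into about 11 µL; a reference agonist was the positive control; negative values mostly stem from fluorescent compounds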
T cruzi repl: T. cruzi replication inhibition; inhibition, % (concentration not given with the values); T. cruzi beta-gal in NIH3T3, luminescence, 90 h; 1.4% of 300,000 active;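 active = mean inhibition across valid replicates above about 55%, limit read from the data; inconclusive = mean below that limit but half or more replicates reach it; inactive = mean below it, under half of replicates reach it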;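 also: signal also drops with host cell toxicity which is not excluded here; 0% = plate median of DMSO wells and 100% = zero luminescence signal; higher percent means less beta-gal luminescence so fewer parasites; stock transfer was 50 nL into about 50 µL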
Calb FLC: affects C. albicans growth with fluconazole; C. albicans CaCi-2 (fluconazole-resistant clinical isolate) + fluconazole, Alamar Blue growth, 48 h; 0.57% of 300,000 active; growth inhibition, % (test concentration not listed);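 active = most replicates above 75%; inconclusive = exactly half above 75%; inactive = most below 75%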;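 also: all wells also contain fluconazole at 8 µg/ml as a sub-toxic cotreatment; 0% = median of DMSO wells and 100% = median of geldanamycin control wells; wells of about 8 µL received 7.5 nL stock; the first replicate is given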
RanGTP-Imp inh: inhibitors of RanGTP-importin-beta interaction, primary screen, biochemical, FRET, CFP-Ran, YFP-importin-beta, homogeneous. cell-free CFP-Ran/YFP-importin-beta FRET ratio. inhibition, % (test concentration not listed). 1.1% of 300,000 active;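 active = most replicates above 15%; inconclusive = exactly half above 15%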;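 also: 0% = DMSO wells and 100% = Ran loaded with GDP instead of GTP; wells of about 40 µL received 100 nL stock; the first replicate is given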
Bfl-1 A1 inh: inhibitors of the anti-apoptotic protein A1, read as caspase activation; MEF A1-2A-BIM cells, Caspase-Glo 3/7 luminescence, 3 h; percent of clofoctol response, vehicle zero; caspase activation, % (no concentration beside the values); 0.066% of 330,000 active; AID 2462;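 active = over half of replicate activation scores above 10%, or exactly half above 10 with the replicate mean above 10; inconclusive = replicate mean below 10 yet half the replicates above 10; inactive = over half of replicates below 10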;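 also: wells of about 30 µL received 50 nL stock; many hits fall short of the cut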
Starred values were filed as active, the others as inactive; ? = inconclusive; . = not tested or not shown.

SMILES	LANA-H2A inh	Beta apoptosis	UCH37 DUB inh	Beta2AR agonist	T cruzi repl	Calb FLC	RanGTP-Imp inh	Bfl-1 A1 inh
N#C/C(=C/c1ccccc1)C(=O)NCc1ccccc1	6.3	-11	3.7	3	-5	-6	-1.2	0.5
CN(C)S(=O)(=O)c1ccc(NC(=O)CN2CCc3ccccc32)cc1	3.5	4	.	4	-15	-16	-0.7	-0.6
CCN(CC)C(=O)Oc1ccc(Br)cc1C(=O)Nc1ccc(F)cc1F	0.9	2	1.2	-3	8	-1	-3.9	0.6
COC(=O)CSc1nc(N)c2c3c(sc2n1)CCCC3	3.6	3	5.2	-2	5	0	2.0	0.6
O=C(Oc1coc(CSc2ncccn2)cc1=O)c1ccccc1[N+](=O)[O-]	3.6	-14	6.3	-3	-5	-18	0.9	1.0
OC(CN(c1ccccc1)c1ccccc1)Cn1cnc2ccccc21 (configuration not stated)	1.1	11	4.0	3	6	-21	-1.4	1.1
Cc1cc(=O)n2[nH]cnc2n1	-9.1	-9	-0.2	-3	-21	?	5.0	0.5
C/C(=N\NC(=O)c1ccc(NS(=O)(=O)c2cccs2)cc1)c1ccccc1	-1.6	.	.	1	-6	-3	0.6	-0.1
CCCOc1ccc(C(=O)CCNc2cccc(Cl)c2)cc1	1.5	0	0.8	-3	1	-13	-0.2	-0.4
COc1ccc(NC2CCCN(C(=O)CSc3ccccn3)C2)cc1OC (configuration not stated)	0.0	4	3.8	5	3	-2	-2.7	-0.1
C/C=C/c1ccc(OCC(O)CN(C)Cc2ccc(SC)cc2)c(OC)c1 (configuration not stated)	-5.7	-4	3.0	13	60*	-6	1.9	1.7
NC(=O)C(C(=O)/C=C/c1ccc(Cl)cc1)=C1SCCS1	-2.1	-34	7.9	16	16	-12	2.0	0.4
COc1cc(OC)cc(-n2nnnc2SCC(=O)N2CCCc3ccccc32)c1	-1.8	-2	4.7	10	14	-2	-9.0	1.1
O=C(c1ccc(Br)cc1)N1CCC2(CC1)NCCc1[nH]cnc12	-3.0	-4	-1.3	5	9	3	1.2	1.2
O=C(/C=C/c1ccccc1[N+](=O)[O-])Nc1cccnc1	-1.1	-9	3.7	0	-15	-15	1.6	-0.2
CCc1ncc(/C=C2\C(=O)Nc3ccccc32)[nH]1	3.8	.	.	-4	-2	-5	0.4	-2.2
CC(C)(C)n1ncc2c(=O)n(CC(=O)c3ccccc3)cnc21	-0.3	-7	0.6	-5	-2	-3	-0.3	-0.5
NC(=O)C1CC(=O)N(CCc2ccc(F)cc2)C1 (configuration not stated)	1.0	-1	1.4	-2	-14	5	3.9	-0.4
Cc1cccc(C)c1NC(=S)NC(=O)CCc1ccccc1	3.6	-4	1.9	2	0	-9	-1.5	0.2
CC(C)c1ccc(Cc2nnc(NCCCO)[nH]c2=O)cc1	0.6	-2	2.2	-6	-2	-1	4.2	1.1
CCCn1nc(NS(=O)(=O)c2ccc(F)cc2)c2cc3ccccc3nc21	-6.0	.	5.0	2	-5	-10	4.5	1.3
CC1CCOC(c2coc3ccccc3c2=O)O1 (configuration not stated)	0.5	0	-1.4	-3	-3	19	-2.5	-4.2
CCNC(=S)NS(=O)(=O)c1ccc(C)cc1	-3.3	5	-1.9	1	-28	-2	-2.1	-0.3
N#C/C(=C\c1ccc(C(=O)O)cc1)S(=O)(=O)c1cc(Br)ccc1Br	-4.3	-5	3.6	-4	-20	-1	4.5	-0.2
CCC(C(=O)O)N1C(=O)/C(=C/c2cccn2C)SC1=S (configuration not stated)	.	-3	23*	6	.	.	.	-0.2
O=C(COc1ccc(Br)cc1)Nc1ccc2oc(=O)ccc2c1	-3.1	0	-9.1	-6	-10	3	-0.9	-1.0
O=S(=O)(NC1CC1)c1ccccc1	1.5	.	0.9	-9	4	3	6.3	1.5
O=C(OCn1nnc2ccccc2c1=O)c1ccc(O)cc1	-0.1	-12	0.4	6	-10	34	1.5	-2.1
O=C1Nc2ccccc2OC1CC(=O)N1CCN(c2cccc(C(F)(F)F)c2)CC1 (configuration not stated)	2.1	-5	4.0	3	4	23	-2.0	-1.0
COc1cccc2c1OC1(C)CC2/C(=C(\C)O)C(=O)N1 (configuration not stated)	3.3	-6	4.1	2	-4	24	.	0.5
CC(=O)N(CCC(Cc1ccccc1)c1ccc2c(c1)OCO2)Cc1ccccc1F (configuration not stated)	-3.4	-7	1.7	-9	25	10	2.2	1.2
CC(=O)Nc1ccc(C(=O)CN2C(=O)CSC2=O)cc1	5.8	-6	2.6	5	-7	6	2.1	1.4
Cc1ccc(N(C(=O)CNC(=O)c2ccco2)C(C(=O)NCC2CCCO2)c2ccccc2)c(C)c1 (configuration not stated)	7.7	-4	-3.2	0	-13	7	-0.5	2.2
Cc1noc(C)c1COc1ccc(C(=O)OCC(=O)NC23CC4CC(CC(C4)C2)C3)cc1	9.2	-2	-2.0	3	-11	?	?	0.8
COC(=O)C1=CO[C@@H](O[C@@H]2O[C@H](CO)[C@@H](O)[C@H](O)[C@H]2O)C2C1C=C[C@@]2(O)CO (some centres not stated)	-0.8	-6	5.6	4	.	.	.	0.2
CCOC(=O)C1(C(F)(F)F)N=C(c2cccnc2)OC(N2CCOCC2)=N1 (configuration not stated)	3.8	-9	3.6	8	-9	-10	-3.2	0.3
Cc1ccc(N2C(=O)CSC2c2cccnc2)c(Cl)c1 (configuration not stated)	2.4	-3	-0.6	1	47	-5	2.4	-0.2
Cc1ccc(NC(=O)NC2CCCN2S(=O)(=O)c2ccc(Cl)cc2)cc1 (configuration not stated)	1.3	-5	0.1	10	-11	5	3.9	-0.7
c1ccc(-c2cc(-c3nnco3)c3ccccc3n2)nc1	-3.2	0	0.4	-14	-5	-4	1.8	0.0
COc1ccc(CCNC(=O)c2nnn(CC(=O)Nc3c(C)cc(C)cc3C)c2N)cc1OC	9.2	.	8.6	-3	6	1	0.4	1.7
O=S(=O)(c1ccc(F)cc1)N1CCN(c2ncnc3c2cnn3-c2ccccc2)CC1	-1.7	6	1.4	4	14	1	6.5	0.5
COc1ccc(CCN2C(=O)c3[nH]nc(-c4ccccc4O)c3C2c2cccc(Cl)c2)cc1 (configuration not stated)	-0.9	40	1.9	24	28	52	5.5	0.3
CCC(CC)C(=O)N=C1SC2CS(=O)(=O)CC2N1CCc1ccc(OC)cc1 (configuration not stated)	-2.8	-11	-1.0	2	7	4	-1.6	0.3
CCCCNC(=O)O[C@@H]1C[C@@H]2CCN3C(=O)CCC[C@H]([C@H]1CC)[C@H]23	-0.5	-3	0.9	-2	-10	4	-1.8	-0.5
O=C(/C=C/c1ccc(Cl)cc1Cl)NCc1ccco1	2.2	1	3.0	-4	-2	21	1.6	-1.3
O=C(c1ccc(CN2CCOCC2)cc1)N1CCN(c2cccc(Cl)c2)CC1	3.3	3	0.5	-5	?	7	4.3	-0.6
COc1ccc(C)cc1NC(=O)CSc1nnc(COc2ccc(C)cc2)n1Cc1ccco1	.	17	3.9	2	22	6	3.8	-0.3
Cc1cccc2cc(CN(Cc3cccs3)C(=S)NCc3ccco3)c(=O)[nH]c12	-1.7	.	1.8	1	18	27	5.2	-0.9

A portion from the list above, as a working copy:
SMILES	LANA-H2A inh	Beta apoptosis	UCH37 DUB inh	Beta2AR agonist	T cruzi repl	Calb FLC	RanGTP-Imp inh	Bfl-1 A1 inh
O=C(c1ccc(CN2CCOCC2)cc1)N1CCN(c2cccc(Cl)c2)CC1	3.3	3	0.5	-5	?	7	4.3	-0.6
COc1ccc(C)cc1NC(=O)CSc1nnc(COc2ccc(C)cc2)n1Cc1ccco1	.	17	3.9	2	22	6	3.8	-0.3
Cc1cccc2cc(CN(Cc3cccs3)C(=S)NCc3ccco3)c(=O)[nH]c12	-1.7	.	1.8	1	18	27	5.2	-0.9

(next part)
SMILES	LANA-H2A inh	Beta apoptosis	UCH37 DUB inh	Beta2AR agonist	T cruzi repl	Calb FLC	RanGTP-Imp inh	Bfl-1 A1 inh
CCCCC1=CC2=C(c3ccco3)C(=O)C(C)(OC(=O)c3ccc(OC)cc3)C(=O)C2=CN1Cc1ccccc1 (configuration not stated)	12	-5	3.9	-8	20	9	-13	0.1
O=C(COC(=O)c1cc([N+](=O)[O-])ccc1NCc1ccccc1)NC1CCCCC1	3.9	10	5.7	-13	15	13	-0.1	-1.6
COc1cccc(/C=N/n2c(C3CCCCC3)n[nH]c2=S)c1O	0.0	-12	.	1	-2	17	-3.9	-0.1
CCOc1ccc(C2=C(C=C(C#N)C#N)C(c3ccccc3)c3ccccc3O2)cc1 (configuration not stated)	1.2	9	6.1	4	40	1	-0.5	-0.2
COc1ccc(NC(=S)Nc2cc(C)[nH]n2)cc1Cl	0.7	1	0.7	-1	14	1	2.2	0.3
O=[N+]([O-])c1ccc2[nH]cc(S(=O)(=O)N3CCN(c4cccc(Cl)c4)CC3)c2c1	-5.4	-2	4.7	9	24	15	21	-1.9
CC(Sc1nnc(-c2ccco2)n1C)C(=O)Nc1nccs1 (configuration not stated)	.	-3	0.3	-6	-14	-3	1.1	0.1
Cc1ccc(C(=O)N2CCCCC2)cc1S(=O)(=O)N1CCCCCC1	3.6	4	-0.6	25	10	-2	1.7	0.4
CC(C)(C)c1nc2scc(-c3ccc(Br)cc3)c2c(=O)o1	-3.3	3	-0.8	-2	-14	-10	-3.0	-0.6
COCCCN(C(=O)Nc1cccc(Cl)c1)C(C)c1ccccn1 (configuration not stated)	-4.8	-1	3.4	-4	5	4	-2.7	-0.4
Cc1ccc(CSC2=NCCN2S(=O)(=O)c2ccc(F)cc2)cc1	3.5	4	0.6	-7	32	-3	?	-0.8
CC(C)(C)OC(=O)N/N=C/c1c[nH]c2ccccc12	-2.1	.	.	2	-14	-3	4.8	0.5
O=C(Nc1ccc(C(=O)O)cc1)/C(=C\c1ccco1)NC(=O)c1ccco1	11	.	12	-1	-10	3	2.7	-0.2
Cc1c(N=c2scc(-c3ccccc3)n2CCO)c(=O)n(-c2ccccc2)n1C	3.8	-2	2.7	-5	-4	-20	3.6	0.1
CCOC(=O)C1=NN(c2ccc([N+](=O)[O-])cc2)CC1C(=O)OC (configuration not stated)	2.1	-10	11	6	-18	-1	-4.8	1.0

Some entries already given, limited to Bfl-1 A1 inh and LANA-H2A inh:
canonical_smiles	Bfl-1 A1 inh	LANA-H2A inh
CCNC(=S)NS(=O)(=O)c1ccc(C)cc1	-0.3	-3.3
N#C/C(=C\c1ccc(C(=O)O)cc1)S(=O)(=O)c1cc(Br)ccc1Br	-0.2	-4.3
CCC(C(=O)O)N1C(=O)/C(=C/c2cccn2C)SC1=S (configuration not stated)	-0.2	.
O=C(COc1ccc(Br)cc1)Nc1ccc2oc(=O)ccc2c1	-1.0	-3.1

High-throughput results: PubChem BioAssay, several laboratories
